Source: PubChem
Biofilm kill mix: mixtures killing C. albicans biofilm | AID 1242 | inhibition, % at 7.6 µM | actives 0.02% (n = 120,000) | C. albicans biofilm persisters + clotrimazole, fluorescence viability; primary screen in compound mixtures of four per well;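 active = inhibition above 30.3% in the primary screen of four-compound pools, then above 30% when the compound was retested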;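 also: compounds exposed to preformed 24 h biofilms for 48 h; the number belongs to the whole pool; some results filed as inactive read as strong as hits; inactives centre near 12; 0% = biofilm with clotrimazole alone and 100% = kill control; retested singly at about 60 µM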
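Incubation: 24 h biofilm formation, then 48 h compound exposure, 37 °C | Material: C. albicans biofilms | Buffer or medium: RPMI/MOPS medium, pH 7.0 | Measured by: 2-h Alamar Blue fluorescence, 535/590 nm excitation/emission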
The depositor's hits bear a star. Not all compounds are listed, so the mix of outcomes need not match the whole.

smiles,Biofilm kill mix
CC(C)(C)c1cc(C(=O)N/N=C/c2ccc(O)cc2)n(-c2ccccc2)n1,26
O=C1c2ccccc2C(=O)N1OS(=O)(=O)c1ccccc1,19
COc1ccc(NC(=O)c2ccccc2-c2ccc(C(F)(F)F)cc2)cc1S(=O)(=O)N1CCOCC1,16
COc1ccc(C2=NN(C(=O)CSc3ncccn3)C(c3cccc(OC)c3OC)C2)cc1 (stereo unspecified),20
COc1ccc(C(=O)Oc2cc(N)n(S(=O)(=O)c3ccccc3)n2)cc1,-8
CCS(=O)(=O)Nc1cccc(C2=NN(S(=O)(=O)c3ccc(C)cc3)C(c3ccco3)C2)c1 (stereo unspecified),10
COc1ccc(SC[C@H](CC(C)C)N2CCN(C)CCC2=O)cc1,15
O=C(CCCCCn1c(=S)[nH]c2ccc(N3CCOCC3)cc2c1=O)NC1CCN(Cc2ccccc2)CC1,3
Cc1cc(C)nc(NS(=O)(=O)c2ccc(NC(=O)c3ccc4c(c3)OCCO4)cc2)n1,-5
CC1C=CCC2C(=O)N(c3ccccc3OC(=O)c3ccco3)C(=O)C12 (stereo unspecified),21
O=C(CCCc1c[nH]c2ccccc12)NCC1COc2ccccc2O1 (stereo unspecified),19
Cn1cccc1CC(=O)N/N=C/c1ccco1,0
CCOC(=O)c1c(C)nn(-c2ncccc2NC(=O)NC(C)C)c1C,13
Cn1c(SCC(=O)N2c3ccccc3CCc3ccccc32)nnc1-c1cc2ccccc2cc1O,2
C[C@@H]1CC=C[C@H]2[C@H]1C(=O)N(Cc1ccccc1)[C@H]2c1ccc(-c2cc3ccccc3s2)cc1F,18
CCn1c(NCc2ccccc2NS(=O)(=O)c2ccc(C)cc2)nc2ccccc21,12
Nc1cc(=O)[nH]c(SCc2nnnn2-c2ccc(Cl)cc2)n1,16
C=CCNc1nc(-c2cc3ccccc3o2)cs1,19
Cc1cc(=O)[nH]c(SC(C(=O)O)c2ccccc2)n1 (stereo unspecified),6
CC(C)C(O)(C#CCN1CCCCCC1)c1ccccc1 (stereo unspecified),9
Cc1cc(N/N=C/c2ccc(O)cc2)nc(NS(=O)(=O)c2ccccc2)n1,17
Fc1ccccc1N1CCN(Cc2cccnc2)CC1,13
O=C(COc1ccccc1/C=C1\SC(=O)NC1=O)Nc1ccc(F)cc1,17
COc1ccc(CC(=O)N/N=C/c2ccc(-c3cccc(C(=O)O)c3)o2)cc1OC,31

Part of the list above in order of number of heavy atoms, low to high:
smiles,Biofilm kill mix
Cn1cccc1CC(=O)N/N=C/c1ccco1,0
Cc1cc(N/N=C/c2ccc(O)cc2)nc(NS(=O)(=O)c2ccccc2)n1,17
C[C@@H]1CC=C[C@H]2[C@H]1C(=O)N(Cc1ccccc1)[C@H]2c1ccc(-c2cc3ccccc3s2)cc1F,18

The results go on.
smiles,Biofilm kill mix
CC(=O)Nc1ccc(NC(=O)C(=O)N/N=C/c2cccnc2)cc1,27
Cc1ccccc1OCCn1c(=O)sc2ccccc21,8
Nc1ccc(N2CCCCC2)c(S(=O)(=O)Nc2ccc(Cl)cc2)c1,16
CCCCCc1ccc(-c2nnc(N)s2)cc1,15
COc1ccc(C2=NN(C(N)=S)C(c3ccccc3)C2)cc1 (stereo unspecified),9
CCc1nn(CC(=O)Nc2ccc(Br)c(C)c2)c(=N)s1,17
COC(=O)c1c(NC(=O)c2ccccc2)sc2c1CC(C)(C)NC2(C)C,20
Cc1ccc(Cc2nnc3n(-c4ccccc4)nc(C(=O)c4ccccc4)n3c2=O)cc1,21
O=C(NCc1ccccc1Cl)c1ccc[nH]1,13
CCn1c(O)c(N=NC(=O)C(O)c2ccccc2)c2ccccc21 (stereo unspecified),22
CCOC(=O)c1ccc(NC(=O)C(=O)NCc2ccco2)cc1,7
C/C(N)=C(/C#N)C(=O)COC(=O)c1cc(-c2cccc3ccccc23)nc2ccccc12,11
O=C1NC2(CCN(Cc3ccccc3)CC2)Oc2ccccc21,-4
CCOc1ccc(CCNC(=O)c2cc3c(C)nccc3[nH]c2=O)cc1OCC,4
CC(=O)Nc1cccc([N+](=O)[O-])c1,-2
Cc1c(NC(=O)c2ccc(C(C)(C)C)cc2)cccc1[N+](=O)[O-],-11
Cc1cc(C)cc(NC(=O)C(=O)NCC2CCCO2)c1 (stereo unspecified),4
COc1ccc(-c2[nH]ncc2CNC(C)CCn2cccn2)c(F)c1 (stereo unspecified),1
O=C(c1ccc2c(c1)OCO2)C1CCCN(Cc2ccc3nsnc3c2)C1 (stereo unspecified),29
O=C(CSCc1ccccc1)Nc1cccc(F)c1,21
Cc1cc(Nc2ccc3c(c2)OCCO3)c2cc(Cl)ccc2n1,5
CCOCCCNC(=O)CN(c1cc([N+](=O)[O-])ccc1OC)S(C)(=O)=O,1
O=C(CSc1ccc(-c2ccco2)nn1)NCc1ccccc1Cl,0
CC(=O)Nc1c(Br)cc(N2C(=O)CCC2=O)cc1Br,13
O=C(CCc1ccccc1)OCC(=O)c1ccc(Br)cc1,12
Cc1ccccc1NC(=O)N1c2ccccc2CC1C (stereo unspecified),11
CC(NC(=O)COC(=O)C1CCN(S(=O)(=O)c2ccccc2C(F)(F)F)CC1)c1ccccc1 (stereo unspecified),22
COC(=O)CCC(=O)OC1(C)C(=O)C2=CN(C3CCCC3)C(c3ccc(OC)cc3)=CC2=C(Br)C1=O (stereo unspecified),-1
COc1ccc(C(=O)Nc2cc([N+](=O)[O-])ccc2N2CCCC2)cc1,16
CCOCCCNC(=O)C(NC(=O)c1ccccc1O)c1ccc(C)cc1 (stereo unspecified),14
O=C(N/N=C/c1cc([N+](=O)[O-])ccc1O)C1C2CCCCC21 (stereo unspecified),10
CCOc1ccc(/C=N/NC(=O)CN2CCSCC2)cc1,6
O=C(/C=C/Nc1ccc(S(=O)(=O)Nc2ncccn2)cc1)c1cccs1,13
Cc1nc(CN2CCN(Cc3nc(C(c4ccccc4)c4ccccc4)no3)CC2)cs1,6
COc1ccccc1NS(=O)(=O)c1cc(NC(=O)CCC(=O)c2cccs2)ccc1Cl,22
Cc1ccc(C)c(OCc2nc3ccccc3[nH]2)c1,0
NS(=O)(=O)c1cccc(NC(=O)c2cc3ccccc3o2)c1,21
Cc1nn(C(C)c2n[nH]c(=S)n2-c2cccc(Cl)c2)c(C)c1[N+](=O)[O-] (stereo unspecified),20
Cc1cc(C)cc(NC(=S)N=Nc2c(O)n(C)c3ccc(S(=O)(=O)N4CCOCC4)cc23)c1,9
O=C(Nc1ccc(Br)c2ccccc12)c1ccc2ccccc2c1O,0
Cc1cc(-c2nn(-c3ccccc3F)cc2CNCCc2cnc[nH]2)c(C)s1,7
CN(Cc1nc(-c2cnccn2)no1)Cc1n[nH]c2c1CCCCC2,16
CN(Cc1cccc(-n2cccn2)c1)Cc1cn(C)nc1-c1ccccc1F,24
CC(=O)OC(COc1ccc(F)cc1)Cn1cnc2ccccc21 (stereo unspecified),12
Cc1cc[n+]2n1CC(O)C2 (stereo unspecified),10
Cc1ccsc1C1C(C#N)=C(N)OC2=C1C(=O)CC(C)(C)C2 (stereo unspecified),9
O=C1NC(SCCCF)=N/C1=C/c1ccc(-n2cncn2)cc1,10
O=C(CCc1nnc(Cc2ccc(-c3ccccc3)cc2)o1)NCCc1ccccn1,25
COc1ccc(OCCNc2c([N+](=O)[O-])c(=O)oc3ccccc23)cc1,15
CCN(CC)c1nc(C)nc2c1sc(=S)n2C,10
Cc1ccc(NC(=O)c2ccc(NCCCN3CCC(C)CC3)c([N+](=O)[O-])c2)cc1F,19
NC(=O)c1ccc(NC(=O)CSc2nnc(-c3ccncc3)n2Cc2ccco2)cc1,2
CC(C)c1ccc(CNC(=O)C(=O)NCC2CCCO2)cc1 (stereo unspecified),21
COc1ccccc1-n1c(=S)[nH]c2c(sc(=S)n2-c2ccc(C)cc2C)c1=O,15
Cc1cc(-c2n[nH]c(=S)n2/N=C/c2ccccc2[N+](=O)[O-])n[nH]1,2
CCCCNC(=S)N(C)/N=C/c1ccc(OCC(=O)Nc2c(C)cc(C)cc2C)c(OC)c1,17
CN(C)c1cc[n+](CCC(=O)Nc2cccc([N+](=O)[O-])c2N)cc1,18
CCC(=O)N(CCN1CCOCC1)Cc1cc2cc3c(cc2nc1Cl)OCO3,14
O=C(C1=C[C@H](c2csc3ccccc23)C[C@H](OCCCCO)O1)N1CCOCC1,20
O=C(CCCCCNc1nc(=S)[nH]c2ccccc12)NCCC1=CCCCC1,9

Further structures follow:
smiles,Biofilm kill mix
CC(C)[N+](C)(CCOC(=O)C1c2ccccc2Oc2ccccc21)C(C)C,16
COC(=O)[C@@H]1C[C@@]2(O)[C@@H](O)[C@@H](O)[C@@H](O)C[C@H]2N1Cc1ccc(C(F)(F)F)cc1,1
O=C1Nc2ccc(Br)cc2C12NNc1ccccc1O2 (stereo unspecified),5
Cc1ccc(C)c(C2C(C#N)=C(N)Oc3cc(C)oc(=O)c32)c1 (stereo unspecified),24
CCC(=O)NC(NC(=S)Nc1cccc2cccnc12)C(Cl)(Cl)Cl (stereo unspecified),16
OCC1(Cc2ccccc2)CCN(Cc2cc3ccccc3o2)CC1,14
Cc1ccc(C(=O)NC(=S)Nc2ccc3[nH]c(=O)[nH]c3c2)c(C)c1,11
NS(=O)(=O)c1cccc(NC(=O)COC(=O)C2CCCCC2)c1,1
Cc1ccc(NC2=C(Cl)C(=O)OC2OC(C)C)c(C)c1 (stereo unspecified),22
CCn1c(=O)c2cc(C(=O)NC(C)C)sc2c2ccccc21,11
CCC(C)c1ccc(NC(=S)NCc2ccccc2OC)cc1 (stereo unspecified),2
Cc1cccc(C(=O)NNc2ncnc3c2cnn3C)c1,26
COc1ccc(NC(=O)CSc2ccccc2)c(OC)c1,11
CC(/C=C/C1(O)C(C)CC(O)CC1(C)C)OC1OC(CO)C(O)C(O)C1O (stereo unspecified),22
CC1CCN(c2ccccc2NC(=S)NC(=O)C(C)(C)C)CC1,8
CC1=C(C)CC(C(=O)Nc2cccc([N+](=O)[O-])c2)C(C(=O)O)C1 (stereo unspecified),9
O=C(O)/C(=C\c1cccs1)c1ccc(F)cc1,-8
O=[N+]([O-])c1ccc(C2NS(=O)(=O)N=C3CCCCCN32)cc1 (stereo unspecified),23
CC(=O)C1C(c2ccccc2)c2c(n[nH]c2C)CC1(C)O (stereo unspecified),20
COc1cccc(Oc2ccc3nnc(C(F)(F)F)n3n2)c1,11
S=C1NCN(Cc2ccco2)CN1c1ccccc1,17
Cc1ccc(C)c(C(=O)CCC(=O)O)c1,12
NNC(=O)c1oc2ccccc2c1-n1cccc1,10
Cc1cc(C)n(NC(=S)NC2CCCCC2)c(=O)c1C#N,8
O=C(O)CCC(=O)N1CCC[C@H]1C(=O)O,26
O=C(O)c1ccc(-c2ccc(/C=C3\NC(=O)N(Cc4ccc(Cl)cc4)C3=O)o2)cc1,15
COc1ccc(/C=C/C(=O)c2ccccc2)cc1Cn1nnc2ccccc21,3
C/C(=N\NC(=O)CNC(=O)c1ccc2c(c1)OCCO2)c1ccco1,18
Cc1ccc(S(=O)(=O)c2c[nH]c3cc4c(cc3c2=O)OCO4)cc1,31
CC(O)CCc1ccc(O)cc1 (stereo unspecified),24
Cc1ccc(SCC(=O)N=C2NC(=O)CS2)cc1,11
Cc1ccc(-c2ccc([C@H]3[C@@H]4C=CCC[C@@]4(C)C(=O)N3Cc3ccccc3)c(F)c2)cc1,-1
O=C(CC1NCCNC1=O)NC1Cc2ccccc2C1 (stereo unspecified),17
COc1ccc(NC(=O)CSc2nnc(N)s2)c([N+](=O)[O-])c1,22
Cc1ccc(C(=O)COc2cc(C)nc3nncn23)cc1,13
CC(C)CC(=O)Nc1c2c(nn1-c1ccc(F)cc1)CSC2,16
COc1cc([N+](=O)[O-])ccc1-c1ccc(/C=N/NC(N)=O)o1,13
O=C(CCNC(=O)c1ccccc1)Oc1ccc([N+](=O)[O-])cc1,16
COc1ccc(OC)c(NC(=O)N2CCCC(C(=O)c3ccccc3OC)C2)c1 (stereo unspecified),7
O=S1(=O)N=C2CCCCCN2C(c2ccccc2)N1 (stereo unspecified),7
O=S(=O)(c1cc(C(F)(F)F)ccc1Cl)N1CCN(c2ccccn2)CC1,19
COC(=O)Cn1c(=O)oc2ccc(C)cc21,9
CCOC(=O)c1sc(N(Cc2ccccc2)C(=O)COC(=O)c2ccc(O)cc2)nc1C,5
C/C(Cc1ccccc1)=N\NC(=O)CNC(=O)c1ccc(Cl)cc1,7
O=C(Nc1ccc(S(=O)(=O)NC2=NCCCCC2)cc1)c1ccccc1Cl,21
CCOC(=O)C1C(c2ccccc2)C(C(=O)OCC)S(=O)(=O)C(CCN(CC)CC)S1(=O)=O (stereo unspecified),5

Reprinted at random: seven compounds from above
smiles,Biofilm kill mix
CCOc1ccc(/C=N/NC(=O)CN2CCSCC2)cc1,6
Cc1nn(C(C)c2n[nH]c(=S)n2-c2cccc(Cl)c2)c(C)c1[N+](=O)[O-] (stereo unspecified),20
CC(=O)OC(COc1ccc(F)cc1)Cn1cnc2ccccc21 (stereo unspecified),12
Cc1ccc(Cc2nnc3n(-c4ccccc4)nc(C(=O)c4ccccc4)n3c2=O)cc1,21
COC(=O)[C@@H]1C[C@@]2(O)[C@@H](O)[C@@H](O)[C@@H](O)C[C@H]2N1Cc1ccc(C(F)(F)F)cc1,1
O=C(CC1NCCNC1=O)NC1Cc2ccccc2C1 (stereo unspecified),17
CCOCCCNC(=O)CN(c1cc([N+](=O)[O-])ccc1OC)S(C)(=O)=O,1
